From PubChem
miR-21 reporter = raises the signal of a miR-21 reporter; Potency, µM (top dose mostly 38.3 µM), for inactives: at the highest dose reporter change, positive = more light; HeLa miR-21 FLuc reporter, luciferase, 48 h; 340,000 tested, under 10 active; AID 2288; active = well fitted rising curve with a large enough effect; inconclusive = small, poorly fitted or top-dose-only effect; inactive = no such curve, though single readings can be large or run the other way;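 note: % of control where 0% means no effect; miR-21 action dims this reporter so a rising signal means less miR-21 action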
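HeLa miR-21-FLuc reporter line, endogenous miR-21; 2000 cells/well in DMEM/10% FBS; compound titration up to ~40uM final, 48 h, 37 degree Celsius; luciferase detection reagent, 15 min lysis, CCD luminescence.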
Rango release inh = inhibition of RanGTP-driven Rango-importin beta dissociation; O95149+P62826; Biochemical FRET Rango-importin beta, RanGTP-induced dissociation; Potency, µM (highest dose often 46.1 µM), for the others: top-dose activity change, negative = inhibition; 340,000 tested, 0.071% active; AID 540253; active means falling FRET ratio curve, often poorly fitted, with flat reads before Ran was added; inconclusive means other falling curves, or compound fluorescence or quenching; inactive means flat or rising ratio curve;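 note: potency is the fitted concentration of half-maximal effect; % of control where 0% means no effect; nearly all actives have a fitted effect of over 45% in size; -100% = wells without RanGTP and RCC1; the record marks most hits as doubtful in a second field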
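Two FRET readings bracket the reaction: one 5 min after compound meets Rango–importin beta, another 45 min after RanGTP-RCC1 (0.6 uM Ran, 0.2 uM RCC1, 2 mM GTP) is added. Only the second defines inhibition.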
GLA inh pH 4.5 = alpha-galactosidase A (human) inhibition, pH 4.5 | P06280 | purified enzyme, 4-MU-alpha-Gal fluorescence, pH 4.5 | activity change, negative = inhibition, % at 105 µM | 230,000 tested, under 10 active; inconclusive = small, poorly fitted or top-dose-only inhibition, or a rising curve; inactive = flat fitted curve, though single readings scatter; no compound was filed as active;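 note: 0% = full activity with enzyme and -100% = basal without enzyme; dose as in the result columns while the protocol names 77 µM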
Rango complex inh = inhibitors of Rango-importin beta complex formation. Rango CFP/YFP FRET sensor + importin beta, 45 min. AID 540263. 340,000 tested, 0.031% active. Q14974. Potency, µM (titrated, usually from 92.2 µM), for the others: at the top dose inhibition of complex formation; active = rising FRET ratio curve, often small or poorly fitted; inconclusive = mostly compound fluorescence or quenching in the first reads; inactive = flat curves in all reads;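 note: potency is the fitted concentration of half-maximal effect; 0% = DMSO wells and 100% = buffer wells lacking importin beta; nearly all actives have a fitted effect of over 15% in size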
Target sequence (Q14974 whole entry, looked up): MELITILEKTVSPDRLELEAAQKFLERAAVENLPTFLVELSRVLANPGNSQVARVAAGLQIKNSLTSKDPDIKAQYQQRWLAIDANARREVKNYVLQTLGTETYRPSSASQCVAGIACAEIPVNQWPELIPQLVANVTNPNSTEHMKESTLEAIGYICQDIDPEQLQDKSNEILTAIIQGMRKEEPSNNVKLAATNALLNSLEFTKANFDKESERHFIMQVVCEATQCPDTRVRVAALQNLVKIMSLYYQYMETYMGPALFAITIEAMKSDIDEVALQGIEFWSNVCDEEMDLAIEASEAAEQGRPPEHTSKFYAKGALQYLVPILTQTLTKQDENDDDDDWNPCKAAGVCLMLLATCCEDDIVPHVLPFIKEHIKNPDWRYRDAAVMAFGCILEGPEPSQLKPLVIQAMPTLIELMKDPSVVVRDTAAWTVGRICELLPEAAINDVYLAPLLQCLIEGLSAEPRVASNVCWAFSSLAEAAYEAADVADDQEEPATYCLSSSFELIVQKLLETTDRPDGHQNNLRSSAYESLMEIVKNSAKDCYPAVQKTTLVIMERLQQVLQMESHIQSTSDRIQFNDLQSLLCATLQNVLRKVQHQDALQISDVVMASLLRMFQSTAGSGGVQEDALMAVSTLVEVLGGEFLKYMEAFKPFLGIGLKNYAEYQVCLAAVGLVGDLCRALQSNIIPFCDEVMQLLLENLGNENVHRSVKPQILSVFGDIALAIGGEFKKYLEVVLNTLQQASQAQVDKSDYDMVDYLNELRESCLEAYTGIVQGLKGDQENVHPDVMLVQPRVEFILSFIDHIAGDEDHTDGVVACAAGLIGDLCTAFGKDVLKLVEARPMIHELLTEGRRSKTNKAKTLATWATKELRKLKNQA
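FRET biosensor Rango (snurportin 1 IBB between N-terminal EYFP and C-terminal Cerulean), 50 nM in PBS/1 mM DTT/0.02% Tween-20/0.1% BSA, preincubated 5 min RT with compound; 0.125 microM importin beta added, 45 min RT, CFP/YFP FRET ratio read.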
* hit, by the source's call; ? = inconclusive; . = no result given. The list is partial. The share of hits here may be higher or lower than overall.

SMILES	miR-21 reporter	Rango release inh	GLA inh pH 4.5	Rango complex inh
COc1ccc(C(=O)N2N=C(c3cccs3)CC2c2ccccc2O)cc1 (stereo not given)	0%	-11%	.	-0.8%
CCn1cc(C(=O)NCCc2ccccc2)c(=O)c2cc(S(=O)(=O)N(C)C)ccc21	-6%	-20%	.	0.2%
COc1ccc(-n2nc(C(=O)NCC(=O)N3CCN(C)CC3)c3ccccc3c2=O)cc1	0%	19%	.	-3.2%
C/C=C/C(=O)OCC(=O)Nc1ccc(SC(F)F)cc1	-2%	0%	-19	-2.1%
COc1ccc(Cl)cc1C(=O)NNC(=O)c1nn(C)c(=O)c2ccccc12	.	-8%	.	-3.3%
COc1ccc(/C=N\NC(=O)c2ccccc2F)cc1COc1ccc(F)cc1	3%	1%	.	0.6%
CCn1nc(NC(=O)c2ccco2)c2cc3ccc(C)cc3nc21	-4%	?	4	?
O=C(COC(=O)CN1C(=O)NC2(CCCC2)C1=O)Nc1ccccc1C(F)(F)F	.	-10%	.	0.4%
C/C=N/NC(=O)CCNC(=O)c1ccccc1	4%	-9%	3	0.4%
Cc1cnnc2c1-c1no[n+]([O-])c1CC2	-1%	6%	4	5.9%
O=C(NCCN1CCN(c2ccccc2)CC1)c1ccc2c(c1)[nH]c(=S)n1c3ccccc3nc21	1%	-4%	-4	-1.7%
CCNc1nc(SCc2ccccc2)nc(N2CCOCC2)n1	-12%	-3%	2	0.0%
COc1ccc(NS(=O)(=O)c2c(C)n(C)c(=O)n(C)c2=O)cc1OC	0%	39%	7	0.6%
N#C/C(=C\c1cccc(Br)c1)C(=O)N1CCCCC1	13%	3%	.	0.8%
COc1cc(C2C3=C(CCCC3=O)Nc3[nH]n(-c4ccccc4)c(=O)c32)ccc1OC(C)=O (stereo not given)	-7%	8%	5	-1.1%
CCCn1c(SCCN2CCOCC2)nc2c1c(=O)n(C)c(=O)n2C	-8%	-1%	.	4.4%
C=CCn1cc(C(=O)NCCCOC)c(=O)c2cc(S(=O)(=O)N3CCC(C)CC3)ccc21	.	-16%	.	2.3%
O=C(CN1CCN(Cc2ccc(F)cc2)C1=O)NCc1cccs1	-7%	-7%	-3	0.1%
NNC(=O)c1cc2c(ccc3ccccc32)o1	-7%	?	1	?
O=C1CC(c2cccc(Cl)c2)Cc2nc(N3CCOCC3)ncc21 (stereo not given)	1%	10%	-7	-1.8%
CC(C)c1c(O)ccc2c1CC[C@H]1C(C)(C)CCC[C@]21C	.	1%	.	0.5%
CC1CCN(C(=O)COC(=O)CCCN2C(=O)c3cccc4cccc(c34)C2=O)CC1	-8%	14%	.	-1.0%
O=C(Oc1cccc2cccnc12)c1ccc2c(c1)OCCO2	-11%	-12%	-17	7.8%
O=C(N/N=C/c1ccc2cccc(OCc3ccccc3)c2n1)c1ccc(Br)cc1	0%	1%	7	?
O=C(Nc1ccc(O)cc1)c1ccccc1OCc1ccccc1	1%	7%	.	-0.1%
CC(C)c1ccc2c(c1)C1Cc3ccccc3C1N2 (stereo not given)	-44%	0%	1	-1.0%
Cc1ccc2c(CN3CCN(S(=O)(=O)c4ccccc4C(F)(F)F)CC3)cc(=O)oc2c1C	.	15%	.	0.0%
Cc1ccc(Cn2nc(C)c(/C=N/NC(=O)c3cccnc3)c2C)cc1	2%	-10%	10	3.5%
CC(C)OC(=O)CSc1nc2c(cc1C#N)CCCCC2	-2%	24%	12	-2.2%
O=C(CSc1nnc(-c2ccncc2)n1Cc1ccco1)Nc1cccc(O)c1	-2%	-4%	5	-0.8%
O=C(Nn1cc(C(=O)Nc2ccccc2F)c2ccccc2c1=O)c1cnccn1	23%	1%	-2	-0.4%
COc1ccc(/C=C/C(=O)N(C)C2(C)CCS(=O)(=O)C2)cc1 (stereo not given)	.	-11%	.	-2.2%
O=C(Cc1ccccc1)NCCSCc1ccccc1	-31%	16%	-11	-2.5%
Cc1ccc2[nH]c3c(Cl)ncnc3c2c1	7%	-17%	6	-3.6%
Cc1ccc(NC2(C(N)=O)CCCC2)cc1	.	15%	.	3.0%
COc1ccc(N2C(=O)CCC2(C#N)c2ccc(Br)cc2)cc1 (stereo not given)	-3%	-6%	-3	1.5%
COc1ccc(OCC(=O)N2CCc3ccccc3C2)cc1	-8%	19%	.	1.2%
COc1ccc(C(=O)N2CCN(C(=O)c3cc(OC)c(OC)c(OC)c3)CC2)cc1	-1%	?	-4	0.5%
Cn1c(=O)c(=O)n(C)c2cc(S(=O)(=O)NCCOc3ccccc3)ccc21	1%	0%	-9	2.5%
OCCOCCN1CCN(C(=S)Nc2ccccc2)CC1	-3%	-1%	4	-2.6%
CCc1cc(=O)oc2c(C)c(OCC(=O)NCC3CCC(C(=O)O)CC3)ccc12 (stereo not given)	-3%	14%	.	-0.8%
O=C(CSc1nc2[nH]c(=O)cc(O)c2s1)Nc1cc(Cl)cc(Cl)c1	0%	2%	.	-1.3%
COc1ccccc1C1CC(=O)Oc2cc(O)ccc21 (stereo not given)	.	1%	0	-0.7%
O=C(Cn1cnc2sc(-c3ccccc3)cc2c1=O)NCc1ccccc1	13%	0%	3	0.9%
CCOC(=O)C1CCN(C(=O)c2ccc(S(=O)(=O)Nc3ccccc3Cl)cc2)CC1	.	12%	.	-2.4%
COc1ccc(CN2CC(C(=O)NCc3ccc4c(c3)OCO4)CC2=O)cc1 (stereo not given)	2%	7%	-8	0.7%
Cc1ccccc1OCC(=O)OCC(=O)Nc1ccc2c(c1)OCCO2	.	9%	.	0.2%
CCCCc1nnc2c(N(C)S(=O)(=O)c3ccc(C)cc3)nc3ccccc3n12	-10%	28%	4	-2.7%
CC(NC(=O)COC(=O)c1ccccc1F)C1CC2CCC1C2 (stereo not given)	.	4%	.	-2.4%
O=C(CN(c1ccc(F)cc1)S(=O)(=O)c1ccc2c(c1)OCCO2)Nc1ccccc1	3%	-8%	-2	?
O=C(Nc1ccccc1)c1ccc(CN2CCC(Cc3ccccc3)CC2)cc1	.	-12%	.	-1.5%
COc1ccc(C(=O)Nn2cnc3scc(-c4cccs4)c3c2=O)c(O)c1	-48%	9%	-10	0.2%
CCOc1ccc(-c2cc(C(=O)N/N=C(\C)c3cccnc3)c3ccccc3n2)c(OCC)c1	10%	0%	.	-3.0%
FC(F)Oc1ccc(NC(=S)NNc2ccnc3cc(Cl)ccc23)cc1	-1%	?	11	-1.5%
CCOc1cc2[nH]c(=S)n(CCCOC)c(=O)c2cc1OCC	1%	8%	1	?
COc1ccccc1NC(=O)c1ccccc1NC(=O)c1ccccn1	.	0%	.	7.9%
c1ccc2c(CCN3CCNC[C@H]3Cc3cccc4ccccc34)cccc2c1	.	13%	.	?
Nc1cc(=O)[nH]c(SCC(=O)Nc2cccc([N+](=O)[O-])c2)n1	-3%	2%	7	?
COc1ccc([C@@H]2OC2(C(N)=O)C(N)=O)cc1	1%	21%	5	-6.4%
O=C(c1cc(=O)c2cc(Cl)ccc2o1)N1CCN(Cc2ccccc2)CC1	-7%	-10%	.	-0.8%
(listing goes on)
SMILES	miR-21 reporter	Rango release inh	GLA inh pH 4.5	Rango complex inh
COc1ccc(C(CCN2CCN(c3ccccc3)CC2)c2c(OC)cc(OC)c3c(-c4ccccc4)cc(=O)oc23)cc1 (stereo not given)	1%	2%	-3	2.5%
CCOc1cc(NC(=S)NCCCN2CCOCC2)c(OCC)cc1NC(=O)c1cccs1	0%	-3%	-4	-0.2%
Nc1ccc2nc(COc3ccccc3)[nH]c2c1	-21%	3%	.	?
O=C(COC(=O)c1cc2ccccc2cc1O)NC(=O)NCc1ccco1	-4%	-5%	-9	?
CCCCC1CCC(C(=O)N(CCOC)c2c(N)n(CC(C)C)c(=O)[nH]c2=O)CC1 (stereo not given)	.	-2%	.	0.9%
Cc1ccc(NC(=S)N(CCN(C)C)Cc2cc3cc(C)ccc3[nH]c2=O)cc1	3%	-2%	-3	0.9%
O=C1CC(c2ccccc2)CN1C(=O)c1cccc([N+](=O)[O-])c1 (stereo not given)	1%	20%	-1	-2.7%
Cc1sc2ncn(CC(=O)Nc3ccccc3F)c(=O)c2c1-c1ccccc1	11%	-9%	3	0.7%
CCC(=O)N1CC2(CC(c3cccc(NC(=O)COc4ccc(Cl)cc4)c3)=NO2)C[C@@H]1C(N)=O (stereo not given in full)	8%	.	0	.
Clc1ccc(CSc2ccc(-c3ccco3)nn2)cc1	-29%	22%	-3	-0.4%
CCN(CC)C(=O)CSc1nnc(-c2cccnc2)n1Cc1ccccc1	-5%	0%	2	-0.3%
CCn1c(=O)cc(SCC(=O)Nc2ccc(Cl)cc2)c2ccccc21	0%	-21%	10	0.5%
Cc1c(C(=O)NCc2ccccc2)oc2c1C(=O)CCC2	-15%	12%	0	0.3%
CCN1C(=O)N[C@@H](c2ccco2)C(C(C)=O)=C1C	.	0%	9	-1.1%
O=C1CCC(CCC(=O)N2CCCC(C(=O)c3ccc4c5c(cccc35)CC4)C2)=NN1 (stereo not given)	2%	12%	7	0.2%
O=C(COC(=O)c1ccccc1F)NC1CCCC1	1%	6%	.	0.1%
COc1cc(C2C3=C(CC(C)(C)CC3=O)Nc3ccccc3N2C(C)=O)cc(OC)c1OC (stereo not given)	-2%	7%	.	1.0%
O=C(c1cccc(S(=O)(=O)N2CCOCC2)c1)N1CCN(S(=O)(=O)c2cccs2)CC1	-4%	27%	5	0.9%
C#CCOCCOCCOCCNc1nc(N2CCN(C(=O)[C@H](CCCN=C(N)N)n3cc(C(N)[C@@H](C)CC)nn3)CC2)nc(N2CCN(C(=O)[C@H](CC(N)=O)n3cc([C@@H](N)CC(N)=O)nn3)CC2)n1 (stereo not given in full)	.	21%	.	6.1%
O=C(Nc1cc(S(=O)(=O)N2CCOCC2)ccc1N1CCCCC1)c1ccc(Cl)cc1	.	1%	.	-2.0%

Arranged by the number under Rango release inh (ascending): seven from the list above
SMILES	miR-21 reporter	Rango release inh	GLA inh pH 4.5	Rango complex inh
CCn1cc(C(=O)NCCc2ccccc2)c(=O)c2cc(S(=O)(=O)N(C)C)ccc21	-6%	-20%	.	0.2%
O=C(Nc1cc(S(=O)(=O)N2CCOCC2)ccc1N1CCCCC1)c1ccc(Cl)cc1	.	1%	.	-2.0%
Cc1cnnc2c1-c1no[n+]([O-])c1CC2	-1%	6%	4	5.9%
Cc1ccc2c(CN3CCN(S(=O)(=O)c4ccccc4C(F)(F)F)CC3)cc(=O)oc2c1C	.	15%	.	0.0%
COc1ccc(OCC(=O)N2CCc3ccccc3C2)cc1	-8%	19%	.	1.2%
COc1ccc([C@@H]2OC2(C(N)=O)C(N)=O)cc1	1%	21%	5	-6.4%
Clc1ccc(CSc2ccc(-c3ccco3)nn2)cc1	-29%	22%	-3	-0.4%

Carrying on:
SMILES	miR-21 reporter	Rango release inh	GLA inh pH 4.5	Rango complex inh
CCn1c(COc2ccc3c(c2)OCO3)nnc1SCC(=O)c1ccc(Cl)cc1	1%	0%	-5	1.5%
CN(C)CC(C)(C)CNC(=S)NCc1ccc2c(c1)OCO2	0%	-5%	0	-1.6%
O=C(NCc1cccs1)Nc1cccc(Cl)c1	.	-9%	.	0.3%
CC1(C)OC(=O)C(=CNC(Cc2c[nH]c3ccccc23)C(=O)O)C(=O)O1 (stereo not given)	-2%	3%	2	-0.4%
COc1ccc(Cl)cc1N(CC(=O)N1CCC(C)CC1)S(C)(=O)=O	-4%	18%	-14	0.7%
CCN(CC)CCn1c(NCc2ccco2)nc2ccccc21	-6%	-2%	-6	0.1%
CCOC(=O)CN(c1ccccc1)S(=O)(=O)c1ccc(F)cc1	1%	-9%	-1	3.9%
COCCN=C1Sc2nc3cc(C)c(C)cc3cc2CN1Cc1cccs1	-10%	16%	5	1.9%
Cc1ccc(S(=O)(=O)NC(=O)Nc2ccc(N(C)C)cc2)cc1	-14%	0%	.	0.0%
COc1ccc(C(=O)Nn2c(SCc3cccc([N+](=O)[O-])c3)nc3ccccc3c2=O)cc1	-1%	1%	1	2.5%
Cc1onc(-c2c(Cl)cccc2Cl)c1C(=O)NC1CCCCC1	22%	-11%	.	-0.2%

Shown with values under each structure: 2 of the compounds above
The line under a structure holds: miR-21 reporter | Rango release inh | GLA inh pH 4.5 | Rango complex inh
CN(C)CC(C)(C)CNC(=S)NCc1ccc2c(c1)OCO2
 : 0% | -5% | 0 | -1.6%
O=C(NCc1cccs1)Nc1cccc(Cl)c1
 : . | -9% | . | 0.3%
